Calb FLC – affects C. albicans growth with fluconazole. C. albicans CaCi-2 (fluconazole-resistant clinical isolate) + fluconazole, Alamar Blue growth, 48 h. growth inhibition, % (no concentration beside the values). 300,000 tested, 0.57% active. AID 1979;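 active = most replicates above 75%; inconclusive = exactly half above 75%; inactive = most below 75%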;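 note: all wells also contain fluconazole at 8 µg/ml as a sub-toxic cotreatment; 0% = median of DMSO wells and 100% = median of geldanamycin control wells; wells of about 8 µL received 7.5 nL stock; the first replicate is given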
RanGTP-Impb inh – inhibitors of RanGTP-importin-beta interaction, primary screen, biochemical, FRET, CFP-Ran, YFP-importin-beta, homogeneous. 300,000 tested, 1.1% active. cell-free CFP-Ran/YFP-importin-beta FRET ratio. AID 2216. inhibition, % (no concentration beside the values);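 active = most replicates above 15%; inconclusive = exactly half above 15%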;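 note: 0% = DMSO wells and 100% = Ran loaded with GDP instead of GTP; wells of about 40 µL received 100 nL stock; the first replicate is given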
T cruzi inh – blocks replication of Trypanosoma cruzi; T. cruzi beta-gal in NIH3T3, luminescence, 90 h; inhibition, % (test concentration not listed); 300,000 tested, 1.4% active;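 active = mean inhibition across valid replicates above about 55%, limit read from the data; inconclusive = mean below that limit but half or more replicates reach it; inactive = mean below it, under half of replicates reach it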;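 note: signal also drops with host cell toxicity which is not excluded here; 0% = plate median of DMSO wells and 100% = zero luminescence signal; higher percent means less beta-gal luminescence so fewer parasites; stock transfer was 50 nL into about 50 µL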
ALR H2O2 inh – human ALR oxidase inhibition via reduced H2O2; P55789; purified ALR, DTT oxidation, H2O2 HRP-luminol luminescence; inhibition, % (test concentration not listed); 290,000 tested, 3.8% active; AID 485317;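 active = mean and each replicate at 75% or more; inconclusive = only one of the two met; inactive = neither met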;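 note: stock transfer was 7.5 nL into about 7.5 µL; 0% = neutral wells and 100% = wells with inactivated enzyme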
Target sequence (P55789 whole entry, looked up): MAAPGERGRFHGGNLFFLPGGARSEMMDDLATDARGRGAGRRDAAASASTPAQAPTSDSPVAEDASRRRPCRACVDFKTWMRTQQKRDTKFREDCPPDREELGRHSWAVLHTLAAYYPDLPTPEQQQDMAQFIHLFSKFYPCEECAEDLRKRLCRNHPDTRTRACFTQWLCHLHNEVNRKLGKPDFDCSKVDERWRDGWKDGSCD
rRNA inh HTS – inhibitors of bacterial rRNA selective over humanized ribosomes | E. coli WT GFP vs humanized-ribosome RFP mutants, fluorescence, 24 h; active compounds read low; DMSO median 0, no signal -100 | GFP signal change (wild-type ribosome), % (no concentration beside the values) | 350,000 tested, 1.6% active;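 active = significant combined selectivity score with lowered wild-type GFP, culture density cut under 30%, mutant RFP and density less affected; inactive = any of these conditions unmet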; note: one replicate is shown; some compounds called inactive have numbers as strong as hits
AF4-AF9 inh – blocks AF4 peptide binding to human AF9. AlphaScreen, biotin-AF4 peptide binding to FLAG-AF9. 350,000 tested, 0.47% active. P42568. AID 651704. inhibition, % at 10 µM;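 active = every replicate reaching a set inhibition limit, whatever the replicate mean, cut at about 25% in these data; inconclusive = mean inhibition reaches that limit but some replicates miss it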;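 note: 0% = plate neutral control median and 100% = total signal loss; the record names both 10 and 1 µM as test concentration; the first replicate is given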
Target sequence (P42568 whole entry, looked up): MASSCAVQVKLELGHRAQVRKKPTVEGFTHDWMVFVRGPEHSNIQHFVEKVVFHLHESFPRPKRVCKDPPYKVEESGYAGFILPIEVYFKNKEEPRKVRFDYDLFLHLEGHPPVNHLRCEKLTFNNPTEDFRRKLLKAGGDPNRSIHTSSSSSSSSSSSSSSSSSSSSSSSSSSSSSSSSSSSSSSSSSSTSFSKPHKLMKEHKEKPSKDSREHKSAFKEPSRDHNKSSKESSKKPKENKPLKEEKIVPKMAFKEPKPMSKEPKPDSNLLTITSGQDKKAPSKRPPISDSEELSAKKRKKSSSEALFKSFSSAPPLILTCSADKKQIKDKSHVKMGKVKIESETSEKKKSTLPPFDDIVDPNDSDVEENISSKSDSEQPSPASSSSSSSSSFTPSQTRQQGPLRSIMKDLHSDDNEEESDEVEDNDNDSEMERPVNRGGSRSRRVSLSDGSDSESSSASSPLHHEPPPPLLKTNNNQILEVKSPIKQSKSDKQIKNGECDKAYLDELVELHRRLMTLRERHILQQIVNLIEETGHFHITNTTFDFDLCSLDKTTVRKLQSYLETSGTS
FGF22 binding – shifts melting point of recombinant human FGF22; recombinant FGF22 thermal shift, SYPRO orange fluorescence; percent of sucrose octasulfate shift, DMSO zero; AID 651658; calls only at 9.99 µM; 340,000 tested, 1.5% active;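 active = melting point raised past a set limit in the mean and every replicate; inconclusive = no clear call; three in four hits are not shown here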
Target sequence (Q9HCT0 whole entry, looked up): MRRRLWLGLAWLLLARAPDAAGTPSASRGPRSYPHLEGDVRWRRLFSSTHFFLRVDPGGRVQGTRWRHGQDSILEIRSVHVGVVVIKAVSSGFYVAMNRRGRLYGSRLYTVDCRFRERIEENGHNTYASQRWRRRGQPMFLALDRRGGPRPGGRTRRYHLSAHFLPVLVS
Beta apoptosis – blocks beta cell apoptosis. protection from apoptosis, % (concentration not given with the values). AID 435005. 300,000 tested, 0.8% active. INS-1E cytokine-induced death, ATP luminescence, 48 h; percent of positive-control rescue, neutral wells zero;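 active = all replicates at 75% or more, or half of them and the mean; inconclusive = half reach 75% but not the mean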;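 note: 0% = cytokine-treated negative control wells and 100% = positive control rescue; higher means more ATP so stronger rescue from cytokine killing; wells of about 40 µL received 100 nL stock; the first replicate is given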
rRNA inh HTS OD600 – recorded beside rRNA inh HTS, whose call it bears; OD600 change, %; measured here: OD600 growth;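 optical density of the mix in the first replicate; 0 = DMSO median and -100 = no signal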
rRNA inh HTS RFP – recorded beside rRNA inh HTS, whose call it bears; RFP signal change, %; measured here: RFP humanized mutant strains;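 first replicate; 0 = DMSO median and -100 = no signal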
Active calls of the source: *; i = inactive; ? = inconclusive; . = not tested or not shown; & = joins results of further samples. Some of the compounds tested; rates above refer to the full screens.

Compound	Calb FLC	RanGTP-Impb inh	T cruzi inh	ALR H2O2 inh	rRNA inh HTS	rRNA inh HTS OD600	rRNA inh HTS RFP	AF4-AF9 inh	FGF22 binding	Beta apoptosis
Cc1c(C)c2cc(Cl)c(OCC(=O)N3C[C@H]4C[C@@H](C3)c3cccc(=O)n3C4)cc2oc1=O	-1	0.3	-4	.	.	.	.	-0.4	i	-3
C=CCn1c(O)c(/C=N/NC(=O)c2ccncc2)c(=O)[nH]c1=O	-8	1.4	-29	-2	-4	11	2.3	-3.6	i	-10
CCOCCCNC(=O)CN1C2CCC1CC(O)(c1ccc(OC)cc1)C2 (configuration not stated)	3	0.6	-7	-1	9	12	0.8	-25	i	-6
O=CC(Cl)P(=O)(N1CCCCC1)N1CCCCC1 (configuration not stated)	-3	2.2	.	1	.	.	.	.	.	-7
COc1cccc(OC)c1C(=O)NC(=S)N1C[C@H]2C[C@H](C1)c1cccc(=O)n1C2	2	-2.1	0	3	.	.	.	-3.6	i	2
CCOP(=S)(OCC)Oc1cc(C)oc(=O)c1	-16	1.5	2	-7	12	-1	0.0	-8.2	i	4
CC(C)C(=O)Nc1ccc(S(=O)(=O)N2CC3CC(C2)c2cccc(=O)n2C3)cc1 (configuration not stated)	4	-3.8	-8	2	.	.	.	-3.7	i	-8
Oc1ccccc1C1NCc2ccccc2-n2cccc21 (configuration not stated)	10	0.2	8	3	3	4	1.1	17	i	-3
S=P(Nn1cnnc1)(c1ccc(Br)cc1)c1ccc(Br)cc1	14	3.9	38	-3	-49	-79	-14	2.2	i	.
C[N+]1(CC2COC(c3ccco3)O2)CCCCC1 (configuration not stated)	-8	1.4	-4	-2	8	10	-1.9	-2.2	i	-2
CC(=NCCCO)c1c(O)n(Cc2ccccc2)c(=O)[nH]c1=O	10	2.8	-10	-3	.	.	.	.	.	0
CSc1ncc(/C=C2/C(=O)NC(=O)N(C)C2=O)cn1	-10	-1.5	-10	8	.	.	.	.	.	0
CCCC(C)C(=O)NC1CCSC1=O (configuration not stated)	27	2.4	-13	-11	.	.	.	.	.	-2
CC1NCCC2(O)CCCCC12 (configuration not stated)	-14	-2.7	-3	-4	18	21	2.8	-3.5	i	2
O=C1NC(=O)N(Cc2ccco2)C(=O)/C1=C\c1ccc(-c2ccc(F)cc2)o1	-2	0.7	-10	14	-18	3	14	-1.1	i	-16

The listing continues.
Compound	Calb FLC	RanGTP-Impb inh	T cruzi inh	ALR H2O2 inh	rRNA inh HTS	rRNA inh HTS OD600	rRNA inh HTS RFP	AF4-AF9 inh	FGF22 binding	Beta apoptosis
CCOP(=O)(OCC)C(NC(=O)c1cccc2ccccc12)C(Cl)(Cl)Cl (configuration not stated)	0	-1.4	8	-13	.	.	.	.	.	-4
Cc1onc(-c2c(Cl)cccc2Cl)c1/C(N)=N/OC(=O)N(C)C	-13	-4.6	1	-2	11	10	-0.3	-4.0	i	-12
O=C(O)c1ccc(/C=C/c2nc3ccccc3c(=O)n2-c2ccc(Br)cc2)cc1	6	-2.8	46	8	-4	-6	1.0	0.9	i	13
COC(=O)C1=C(c2ccc(F)cc2OCc2ccccc2)C[C@@H]2CC[C@H]1N2C(=O)NCC1CC1	.	.	.	-7	-26	-40	-10	2.6	i	0
CCc1ccc(NC(=O)C(C)OC(=O)c2c(C)nn(Cc3ccccc3)c2Cl)cc1 (configuration not stated)	?	1.0	51	-10	9	7	0.0	-2.1	i	0
CC12CCC(=O)C=C1CCC1C2CCC2(C)C(O)CCC12 (configuration not stated)	.	.	.	-3	-30	-34	-17	-0.6	i	-2
CN1CCN(CCOC2c3ccccc3CSc3ccc(Cl)cc32)CC1 (configuration not stated)	?	6.7	20	-4	.	.	.	.	.	16
COC(=O)C1=C(c2cccc(OC)c2OC)C[C@@H]2CC[C@H]1N2C(=O)NCC1CC1	-18	5.4	-4	-2	9	3	2.3	-3.1	i	-3
CCc1ccc(NC(=O)CN2CC(c3ccccc3)CC2=O)cc1 (configuration not stated)	-2	-2.8	-3	.	3	-1	-2.5	-1.7	i	-7
CC(c1ccccc1)n1cncc1C(=O)O (configuration not stated)	-8	1.1	-1	-5	.	.	.	.	.	0
CCN(C(=O)COC(=O)c1cn(C)c2ccccc12)c1ccc(F)cc1	.	.	.	1	-4	-11	10.0	1.2	i	-2
O=C(Nc1ccncc1)c1cccn(Cc2ccccc2)c1=O	2	-1.9	31	12	-13	-13	-1.6	-1.1	i	13
OCC12COC3c4ccccc4C(OC1)N32 (configuration not stated)	47	0.9	-11	-14	11	3	-2.3	.	.	-4
C=Cn1ccnc1P(=S)(c1c(C)nn(-c2ccccc2)c1C)c1nccn1C=C	5	1.2	-18	0	-2	-5	-2.7	0.4	i	-3
CC(CCc1ccccc1)NC(C)C(O)c1ccc(O)cc1 (configuration not stated)	.	-5.4	5	9	13	13	2.4	1.2	i	-8

The listing continues.
Compound	Calb FLC	RanGTP-Impb inh	T cruzi inh	ALR H2O2 inh	rRNA inh HTS	rRNA inh HTS OD600	rRNA inh HTS RFP	AF4-AF9 inh	FGF22 binding	Beta apoptosis
CC1(C)C(C(=O)N2CCN(C(=O)c3ccccc3)CC2)C1(C)C	7	-1.1	-9	38	0	10	-2.2	-1.6	i	1
CCN(CC)CCCN=Cc1c(O)n(CCc2ccc(OC)c(OC)c2)c(=O)[nH]c1=O	-17	-0.4	-16	-1	.	.	.	.	.	-13
CSc1ccc(C(=O)C2CCCN(Cc3cc4ccccc4[nH]3)C2)cc1 (configuration not stated)	1	2.5	34	-3	-57	-76	-13	4.8	i	4
CCn1c(O)c(C(c2ccccn2)c2c(O)n(CC)c(=S)[nH]c2=O)c(=O)[nH]c1=S	4	-2.1	-16	10	9	4	2.7	-5.2	i	-9
CC(=NCc1ccc2c(c1)OCO2)c1c(O)n(Cc2ccccc2)c(=O)[nH]c1=O	?	3.2	14	-7	13	6	-0.8	4.4	i	1
O=C(COc1ccccc1)NCCc1cnc[nH]1	4	-0.1	6	-22	10	19	0.7	-1.7	i	-1
O=C1CC(=O)N(c2cccc(Br)c2)C(=O)N1	-1	-5.3	8	25	-4	2	3.9	0.5	i	2
NNC(=O)c1ccc(Cl)cc1	2	0.2	-9	-8	0	-8	-7.4	-0.8	i	-2
Clc1ccc(COC(Cn2ccnc2)c2ccc(Cl)cc2Cl)c(Cl)c1 (configuration not stated)	.	-3.7	51	1	-62&-43	-79&-71	-16&-4.8	5.8&2.1	i	11
CC(C)CC(=O)NC(Oc1ccc(Cl)cc1)C(Cl)(Cl)Cl (configuration not stated)	-23	-1.3	-13	2	.	.	.	.	.	4
O=C(c1cc2cc(Cl)ccc2[nH]1)N1CCC2(CC1)OCCO2	-1	2.1	-7	-5	2	-8	3.2	-1.5	i	2
COC(=O)C1=C(c2ccc(S(C)(=O)=O)cc2)C[C@@H]2CC[C@H]1N2C(=O)NC1CCCCC1	-2	-1.5	3	1	5	13	-0.5	-1.1	i	-4
CCCOC(=O)COc1cc(C)cc2oc(=O)c3c(c12)CCC3	-14	-4.1	4	-4	.	.	.	.	.	1
O=C(c1cccnc1)C1CCCN(Cc2nc(-c3cnccn3)no2)C1 (configuration not stated)	5	-3.0	-7	-22	13	-1	-3.2	-4.1	i	-5
COc1ccccc1N1CCN(Cc2c(F)cccc2F)CC1	-1	?	6	.	-6	-3	-3.6	0.7	i	7

Ordered by SMILES length (ascending): some entries from above
Compound	Calb FLC	RanGTP-Impb inh	T cruzi inh	ALR H2O2 inh	rRNA inh HTS	rRNA inh HTS OD600	rRNA inh HTS RFP	AF4-AF9 inh	FGF22 binding	Beta apoptosis
NNC(=O)c1ccc(Cl)cc1	2	0.2	-9	-8	0	-8	-7.4	-0.8	i	-2
O=C1CC(=O)N(c2cccc(Br)c2)C(=O)N1	-1	-5.3	8	25	-4	2	3.9	0.5	i	2
COc1ccccc1N1CCN(Cc2c(F)cccc2F)CC1	-1	?	6	.	-6	-3	-3.6	0.7	i	7

Carrying on:
Compound	Calb FLC	RanGTP-Impb inh	T cruzi inh	ALR H2O2 inh	rRNA inh HTS	rRNA inh HTS OD600	rRNA inh HTS RFP	AF4-AF9 inh	FGF22 binding	Beta apoptosis
Cc1cccc(N/N=C/c2c(O)[nH]c(=S)[nH]c2=O)c1	-4	-0.2	-10	100*	4	5	-0.6	-2.7	i	-3
CCCCCOc1ccc(C)cc1CN(CCCl)CCCl	-18	0.5	-6	49	0	-18	0.7	11	i	.
CCOC(=O)C1=C(N)OC2=C(C(=O)CCC2)C12C(=O)Nc1ccccc12 (configuration not stated)	-22	-6.2	-14	-16	15	17	2.4	.	.	-4
Cc1ccc(-n2c(C)nc3cc(Cl)ccc3c2=O)nc1	-4	1.7	-10	.	5	18	-0.4	-1.4	i	-5
Oc1ccc2c3c1O[C@H]1c4oc5ccccc5c4C[C@@]4(O)[C@@H](C2)N(CC2CC2)CC[C@]314	.	2.3	13	3	-22	-30	-3.7	2.8	i	4
COc1ccc(CCNCc2cccn2C)cc1	-4	-2.7	38	38	7	2	0.7	1.7	i	.
CCCCn1c(O)c(C(C)=NCc2cc(OC)cc(OC)c2)c(=O)[nH]c1=O	8	0.2	-13	.	.	.	.	.	.	-22
Cc1ccc2c(c1)CC1(CN2C)C(=O)NC(=O)N(c2cccc(C)c2C)C1=O (configuration not stated)	49	0.4	-7	.	.	.	.	.	.	-4
Clc1cc(I)cc(Cl)c1NC1=NCCN1	.	-4.0	23	-26	2	-9	-0.5	-16	i	-9
CCOC(=O)C1CCN(C(C)C(=O)c2c[nH]c3ccccc23)CC1 (configuration not stated)	-2	4.1	-6	-3	.	.	.	.	.	-6
COc1ccccc1N1C(=O)NC(=O)C(CCc2ccncc2)(CCc2ccncc2)C1=O	-1	4.7	-4	-2	-4	1	0.3	2.3	i	3
O=c1[nH]c(=S)n(C2CCCCC2)c(O)c1/C=N/N1CCOCC1	-5	-5.7	-1	28	-4	-3	13	-0.2	i	-3
CCOP(=O)(OCC)C(Cc1ccccc1)NC(C)=O (configuration not stated)	1	-1.2	3	-11	3	7	-0.6	-0.9	i	6

Compound activity deposited in PubChem BioAssay by Broad Institute.
